FGF22 binding = FGF22 (human) thermal shift binding; Q9HCT0; recombinant FGF22 thermal shift, SYPRO orange fluorescence; percent of sucrose octasulfate shift, DMSO zero; calls only at 9.99 µM; 1.5% of 340,000 active; AID 651658;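 active = melting point raised past a set limit in the mean and every replicate; three in four hits are not shown here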
Target sequence (Q9HCT0 whole entry, looked up): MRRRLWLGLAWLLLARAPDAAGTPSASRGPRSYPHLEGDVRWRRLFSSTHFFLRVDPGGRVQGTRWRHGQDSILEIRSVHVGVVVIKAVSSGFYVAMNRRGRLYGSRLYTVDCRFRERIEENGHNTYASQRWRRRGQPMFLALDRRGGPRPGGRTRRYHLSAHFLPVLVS
UCH37 DUB inh = human UCH37 deubiquitinating enzyme inhibition; Q9Y5K5; purified proteasome/UCH37, Ub-AMC cleavage fluorescence; AID 588478; inhibition, % (test concentration not listed); 0.33% of 330,000 active;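 active = mean of two replicates above 20%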;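 note: 0% = compound-free wells with enzyme and 100% = wells lacking proteasome; stock transfer was 100 nL into about 20 µL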
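Assay system: Proteasome-bound UCH37. Buffer or medium: pH 7.4 Tris-HCl (50 mM) with ovalbumin, ATP-MgCl2, DTT. Incubation: 30 min preincubation with enzyme, 25 min cleavage at room temperature. Measured by: fluorescence, ex 355 nm, em 460 nm. Read-out basis: percent inhibition. Control set: wells without proteasome as full block, compound-free enzyme plus substrate as uninhibited.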
HNF4A DNA FP = change in binding of human HNF4 alpha to DNA | HNF4a-FITC DNA binding, fluorescence polarization, 1 h | activity change, % at 10 µM | 0.3% of 360,000 active | AID 1224865; in the data active = activity change above about 30%, passing the limit was not always enough;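 note: controls were the assay level and a saturating level of protein; the project sought stronger binding though the title names inhibitors; some compounds called inactive have numbers as strong as hits; positive values seem to mean higher polarization but the record does not say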
Target sequence (P41235 whole entry, looked up): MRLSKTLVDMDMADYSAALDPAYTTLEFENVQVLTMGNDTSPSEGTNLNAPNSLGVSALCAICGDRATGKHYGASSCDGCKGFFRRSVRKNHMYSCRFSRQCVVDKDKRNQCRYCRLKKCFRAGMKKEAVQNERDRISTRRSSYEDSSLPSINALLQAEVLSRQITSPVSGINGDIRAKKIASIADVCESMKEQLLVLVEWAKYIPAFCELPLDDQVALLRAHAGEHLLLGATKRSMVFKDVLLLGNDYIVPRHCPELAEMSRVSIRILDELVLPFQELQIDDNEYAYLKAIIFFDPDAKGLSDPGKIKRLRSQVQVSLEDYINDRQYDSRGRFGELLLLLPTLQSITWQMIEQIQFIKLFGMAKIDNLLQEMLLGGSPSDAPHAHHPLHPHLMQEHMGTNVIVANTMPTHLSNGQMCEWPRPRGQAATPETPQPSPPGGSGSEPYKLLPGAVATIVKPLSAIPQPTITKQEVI
rRNA inh HTS = inhibitors of bacterial rRNA selective over humanized ribosomes. E. coli WT GFP vs humanized-ribosome RFP mutants, fluorescence, 24 h; hits give low values; DMSO median 0, no signal -100. AID 720706. GFP signal change (wild-type ribosome), % (test concentration not listed). 1.6% of 350,000 active;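 active = significant combined selectivity score with lowered wild-type GFP, culture density cut under 30%, mutant RFP and density less affected; inactive = any of these conditions unmet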; note: one replicate is shown; some compounds called inactive have numbers as strong as hits
ALR inh = inhibitors of human sulfhydryl oxidase ALR; 3.8% of 290,000 active; P55789; purified ALR, DTT oxidation, H2O2 HRP-luminol luminescence; inhibition, % (concentration not given with the values);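 active = mean and each replicate at 75% or more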;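 note: stock transfer was 7.5 nL into about 7.5 µL; 0% = neutral wells and 100% = wells with inactivated enzyme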
Target sequence (P55789 whole entry, looked up): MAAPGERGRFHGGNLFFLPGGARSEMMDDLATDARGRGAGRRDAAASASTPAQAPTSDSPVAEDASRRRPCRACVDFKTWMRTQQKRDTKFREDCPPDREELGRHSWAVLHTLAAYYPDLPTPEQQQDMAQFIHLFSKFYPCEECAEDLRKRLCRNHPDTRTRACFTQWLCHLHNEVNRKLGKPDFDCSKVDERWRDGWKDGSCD
B2AR ag = activates human beta-2 adrenergic receptor causing internalization; Am2.2-beta2AR cells, FAP receptor internalization, flow cytometry; reference of the scale not given here; P07550; response, % (no concentration beside the values); AID 504454; 0.43% of 340,000 active;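 active = response above a set limit, near 3 SD of response in nonfluorescent compounds, cut at about 42% in these data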;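 note: stock transfer was 100 nL into about 11 µL; a reference agonist was the positive control; negative values mostly stem from fluorescent compounds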
E coli growth = inhibitors of Escherichia coli growth; 0.21% of 330,000 active; OD600, 23 h; hits give low values; OD600 absorbance (concentration not given with the values);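 active = OD600 absorbance below the run mean of sample wells minus 3.6 SD, in any replicate, cut at about 0.56 in these data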;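 note: stock transfer was 300 nL into about 60 µL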
rRNA inh HTS OD600 = second read-out of rRNA inh HTS, no call of its own (marks repeat the call); OD600 change, %; measured here: OD600 growth;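 optical density of the mix in the first replicate; 0 = DMSO median and -100 = no signal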
rRNA inh HTS RFP = second read-out of rRNA inh HTS, no call of its own (marks repeat the call); RFP signal change, %; measured here: RFP humanized mutant strains;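 first replicate; 0 = DMSO median and -100 = no signal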
Active calls of the source: *; i = inactive; · = not tested or not shown; & = joins results of further samples. Only part of the results is shown. The share of hits here may be higher or lower than overall.

SMILES | FGF22 binding | UCH37 DUB inh | HNF4A DNA FP | rRNA inh HTS | rRNA inh HTS OD600 | rRNA inh HTS RFP | ALR inh | B2AR ag | E coli growth
Cc1onc(-c2ccccc2Cl)c1C(=O)N1CC(C)OC(C)C1 (stereo unspecified) | i | 2.1 | -0.5 | 17 | 12 | -9.3 | -19 | 8 | 0.75
O=c1[nH]c(=S)[nH]nc1Cc1ccccc1 | · | 1.7 | -4.0 | · | · | · | 12 | 7 | 0.68
COc1ccc(CC(=O)N/N=C/c2cccnc2)cc1OC | i | · | -2.4 | 11 | 21 | 1.0 | -18 | -3 | ·
COC(=O)COc1ccc(S(=O)(=O)NCc2ccc3c(c2)OCO3)cc1C | i | 3.8 | -2.5 | -3 | -4 | 1.2 | -9 | 10 | 0.72
O=C(Nc1ccccc1)c1ccccc1NC(=O)[C@H]1CCCC[C@H]1C(=O)O | i | 2.3 | 1.6 | -1 | -8 | -1.9 | 5 | 1 | 0.67
OC(COc1c(F)cc(Br)cc1F)CN1CCN(c2ccc(F)cc2)CC1 (stereo unspecified) | · | 0.1 | -0.8 | · | · | · | 30 | 4 | 0.65
CC1CN(C(=S)NC(=O)c2ccccc2)CC(C)O1 (stereo unspecified) | i | 5.7 | -1.1 | 11 | 9 | -1.9 | -1 | -8 | 0.67
CN(CC(=O)Nc1ccc(F)cc1)C(=O)CN1C(=O)NC2(CCCC2)C1=O | i | 2.6 | 0.3 | 3 | 14 | 0.8 | · | 4 | 0.67
O=C(c1cccc(Cl)c1)N1CCn2c1nc1ccccc12 | i | 4.3 | 0.5 | 4 | 7 | -4.9 | -10 | -6 | 0.67
NS(=O)(=O)c1cccc(NC(=O)COC(=O)C2CCN(S(=O)(=O)c3cccs3)CC2)c1 | i | 3.8 | -0.3 | -2 | -4 | 4.7 | -2 | -9 | 0.64

Four records picked at random from the list so far, as already listed:
SMILES | FGF22 binding | UCH37 DUB inh | HNF4A DNA FP | rRNA inh HTS | rRNA inh HTS OD600 | rRNA inh HTS RFP | ALR inh | B2AR ag | E coli growth
CC1CN(C(=S)NC(=O)c2ccccc2)CC(C)O1 (stereo unspecified) | i | 5.7 | -1.1 | 11 | 9 | -1.9 | -1 | -8 | 0.67
O=c1[nH]c(=S)[nH]nc1Cc1ccccc1 | · | 1.7 | -4.0 | · | · | · | 12 | 7 | 0.68
OC(COc1c(F)cc(Br)cc1F)CN1CCN(c2ccc(F)cc2)CC1 (stereo unspecified) | · | 0.1 | -0.8 | · | · | · | 30 | 4 | 0.65
O=C(Nc1ccccc1)c1ccccc1NC(=O)[C@H]1CCCC[C@H]1C(=O)O | i | 2.3 | 1.6 | -1 | -8 | -1.9 | 5 | 1 | 0.67

More results follow:
SMILES | FGF22 binding | UCH37 DUB inh | HNF4A DNA FP | rRNA inh HTS | rRNA inh HTS OD600 | rRNA inh HTS RFP | ALR inh | B2AR ag | E coli growth
O=C(Nc1ccccc1Cl)C1C2CCCCC21 (stereo unspecified) | i | · | 4.4 | -3 | 5 | -1.8 | · | -1 | ·
CCC(CC)C(=O)N1CCN(c2ccccc2)CC1 | i | 1.0 | 0.3 | 14 | 11 | 1.5 | 98* | 3 | 0.72
COc1ccc(OC(F)(F)F)cc1CC1(C)C(=O)Nc2cccc(Cl)c21 (stereo unspecified) | i | · | -3.6 | -9 | -13 | 2.1 | · | · | ·
Cc1[nH]c2ccccc2c1CCC(N)=O | · | 4.1 | -1.4 | · | · | · | 99* | 4 | 0.73
COc1ccccc1CNC(=O)c1cc(C2CC2)nc2c1cnn2C(C)C | i | -5.7 | 4.5 | -30 | -38 | -7.4 | -1 | 7 | 0.63
CCOc1ccccc1Nc1nnc(SCC(=O)NC2CC2)s1 | i | 1.4 | 1.6 | -3 | 9 | -0.8 | -11 | -8 | 0.69
COc1cc(C(=O)OCC(=O)NC2CCS(=O)(=O)C2)ccc1OCc1c(C)noc1C (stereo unspecified) | i | · | -0.3 | 9 | 11 | 1.9 | -2 | -5 | ·
C=CCN(c1ccccc1C(=O)NCC(=O)O)S(=O)(=O)c1ccc(C)cc1 | i | 3.1 | -4.0 | 7 | 8 | 1.0 | -36 | -1 | 0.68
O=C1/C(=N\S(=O)(=O)c2cccs2)C([n+]2ccccc2)=C([O-])c2ccccc21 | i | 51* | 0.8 | 10 | 7 | -2.7 | -24 | 8 | 0.64
Cc1ccc(CNC(=O)CCCNS(=O)(=O)c2cccc3nonc23)cc1 | · | 1.1 | -0.4 | · | · | · | -4 | 4 | 0.72
COc1cc(NC(=O)CCN2CCN(C/C=C/c3ccccc3)CC2)cc(OC)c1 | i | -1.9 | 1.1 | -8 | -4 | 1.6 | -10 | 5 | 0.66
CC1(C)Oc2ccc(C(=O)N3CCCCC3)cc2N(CC(=O)NCc2ccccc2)C1=O | · | -0.6 | -2.1 | · | · | · | -2 | -19 | 0.69
Fc1ccccc1-c1nc(N2CCCCC2)c2ccccc2n1 | · | 1.5 | 0.8 | · | · | · | -8 | -13 | 0.7
CN(CCC#N)C(=O)COC(=O)c1ccc2[nH]c3c(c2c1)CCCC3 | i | 2.1 | 1.5 | 8 | 13 | 2.4 | -9 | -1 | 0.69
CCOC(=O)c1c(NC(=O)C(C)Sc2cn(C)c3ccccc23)sc2c1CCC2 (stereo unspecified) | i | 5.6 | 1.4 | -4 | 7 | -1.7 | 54 | -8 | 0.76
O=C(CNS(=O)(=O)c1ccccc1)N/N=C/c1ccncc1 | i | · | 2.1 | 5 | 7 | -1.3 | -3 | 7 | ·
COCCNc1nc(NCCNC(C)=O)c2sc(-c3ccccc3)cc2n1 | i | · | -0.6 | -15 | -17 | -8.0 | · | · | ·
Cn1c(=O)c2cc3c(nc2n(C)c1=O)CC(c1ccccc1)CC3=O (stereo unspecified) | i | 3.7 | -0.4 | 7 | 10 | -2.0 | · | -7 | 0.67
CCOC(=O)C1C(c2ccc(O)c(OC)c2)NC(=O)NC1(O)C(F)(F)F (stereo unspecified) | i | 3.7 | 1.9 | 10 | 7 | 0.6 | 29 | -3 | 0.67
COc1ccc(-c2cc(C(F)(F)F)nc(SCC(=O)N3CC(C)OC(C)C3)n2)cc1OC (stereo unspecified) | · | -19 | -1.7 | · | · | · | · | -15 | 0.76
CC(=O)C1=C(C)NC(C)=C(C(C)=O)C1c1cn(-c2ccccc2)nc1-c1cccs1 | · | -3.8 | 0.0 | · | · | · | 2 | -4 | 0.72
CC(C)NC(=O)NC(=O)CSc1nncn1C | · | 3.4 | -0.8 | · | · | · | -3 | -4 | 0.74
O=C(CCN1C(=O)C2C3C=CC(C4CC34)C2C1=O)Oc1ccc(Br)cc1 (stereo unspecified) | · | 5.6 | -0.1 | · | · | · | -15 | 4 | 0.69
Cc1ccc(Cl)cc1NC(=O)c1ccc(NC(=O)CCC(=O)O)cc1 | i | -0.4 | -2.7 | 7 | 4 | 1.6 | · | 3 | 0.71
CCCCCCSc1nsc(NC(=O)CC(C)C)n1 | i | 0.4 | 1.8 | -46 | -74 | -13 | 1 | 4 | 0.67
COc1ccc(/C=C(\C#N)C(=O)C(C)(C)n2cncn2)cc1 | · | 5.2 | 4.8 | 16 | 16 | 4.7 | 62 | 10 | ·
C=C(C)C(O)Cc1c(OC)ccc(C(=O)/C=C/c2ccc(O)cc2)c1O (stereo unspecified) | i | 4.2 | -4.1 | -23 | -11 | -14 | · | 16 | 0.68
O=C(Cc1cccc(NC(=O)C2CCN(C(=O)C3CCCCC3)CC2)c1)Nc1cccc(C(=O)N2CCCC2)c1 | i | 3.4 | -0.9 | -22* | -2.4* | 2.3* | -2 | -12 | 0.7
Cc1nn(-c2ccccc2)c(N2CCCC2)c1/C=C1\N=C(c2ccc(F)cc2)OC1=O | · | 7.0 | 1.8 | -2 | -1 | 0.3 | -11 | 12 | 0.7
Cc1nc(N2CCOCC2)nc(OC(C)C)c1[N+](=O)[O-] | i | 6.6 | -1.0 | · | · | · | -2 | -4 | 0.75
COc1cccc(/C=N/NC(=O)CC2C(=O)NN=C2C)c1O (stereo unspecified) | · | · | 0.7 | · | · | · | 97* | -8 | ·
COC(=O)c1cc(NC(=O)CSc2ncn[nH]2)ccc1Cl | i | 1.5 | -0.3 | 3 | -1 | 0.8 | · | 12 | 0.69
O=c1c2ccccc2nc(-c2ccc(Cl)c(Cl)c2)n1O | · | · | 0.1 | · | · | · | 4 | 15 | 0.67
Nc1ncnc2c1ncn2[C@@H]1O[C@H](CNC(=O)[C@@H]2CCCN2S(=O)(=O)c2ccc(F)cc2)[C@@H](O)[C@H]1O | i | 4.4 | 1.4 | 6 | -1 | -4.4 | · | 2 | 0.72
Cc1ccc(CCC(=O)Nc2nccs2)o1 | i | -0.8 | -1.2 | 9 | 14 | -2.0 | -7 | -8 | 0.72
O=C(CCN1C(=O)/C(=C\C=C\c2ccccc2)SC1=S)Nc1ccccc1C(=O)O | · | 11 | -5.2 | -6 | -4 | 8.7 | 46 | 8 | 0.63
COC(=O)c1c(C)oc2ccc(N(C(=O)c3ccncc3)S(=O)(=O)c3ccc(C)cc3C)cc12 | · | 1.2 | -1.5 | · | · | · | -2 | 8 | 0.71
Cn1cnc([N+](=O)[O-])c1S(=O)(=O)Oc1cccc2ccccc12 | i | 2.6 | -3.4 | -2 | 2 | 9.1 | · | 21 | 0.57
CCn1c(=O)cc(SCC(=O)NCC2CCCO2)c2ccccc21 (stereo unspecified) | · | -1.8 | 5.7 | · | · | · | 0 | -3 | 0.67
COc1cccc(C2C(=O)N(C3CCCCC3)CC(=O)N2Cc2ccc(F)cc2)c1 (stereo unspecified) | i | 0.7 | -2.6 | -34 | -40 | 5.6 | 1 | 2 | 0.71
COc1ccc(S(=O)(=O)NCC(=O)NCc2cc(=O)n(C)c(=O)n2C)cc1F | i | 2.7 | 1.2 | 4 | -4 | 1.6 | -2 | 0 | 0.67
Cc1cccc(C)c1NC(=O)CSCC(=O)c1ccc(O)c(O)c1 | · | 8.2 | 0.1 | · | · | · | 99* | 1 | 0.74
CCN(CCO)C(=S)Nc1cc(S(=O)(=O)N(C)C)ccc1C | i | -1.0 | 8.1 | 10 | 0 | -6.1 | · | -1 | 0.71
CC(C)C(NC(=O)COc1ccccc1)C(=O)O (stereo unspecified) | · | 0.3 | 2.0 | · | · | · | -7 | -2 | 0.7
CCOc1ccc(OCCNC(=O)c2ccc3c(c2)nnn3CC)cc1 | i | 2.1 | 2.1 | · | · | · | -4 | -3 | 0.67
COC(=O)CC/C(O)=C1/C(=N)CC(C)(C)CC1=O | · | -1.9 | -1.0 | · | · | · | · | 4 | 0.7
Cc1ccc(NC(=S)N(C)N)cc1Cl | i | 1.3 | 0.5 | -25* | -7.1* | 3.6* | · | -3 | 0.66
C[C@H](CO)N1C[C@H](C)[C@@H](CN(C)Cc2ccc(Cl)c(Cl)c2)Oc2c(NS(=O)(=O)c3cn(C)cn3)cccc2C1=O | i | 11 | 5.3 | -3&6 | -20&-1 | -0.6&0.8 | · | 4 | 0.71
CSCCC(NS(=O)(=O)/C=C/c1ccccc1)C(=O)N1CCC(C)CC1 (stereo unspecified) | · | 0.6 | -4.3 | · | · | · | 8 | 17 | 0.69
O=C(NCc1ccco1)C(=O)c1c[nH]c2ccccc12 | · | 8.8 | 0.9 | 2 | -2 | -0.2 | -12 | -1 | 0.65
CC(C)n1nnnc1SCC(=O)N1N=C(c2cccs2)CC1c1cccs1 (stereo unspecified) | i | -2.6 | 0.9 | · | · | · | -5 | -6 | 0.69
CNC(=O)COc1ccc(S(=O)(=O)Nc2ccc(OC)cc2)cc1 | i | 1.9 | 4.3 | 8 | 4 | -11 | -14 | -7 | 0.68
CC(C)NC(=O)c1cc(-c2cccs2)on1 | · | 1.9 | -6.5 | · | · | · | 3 | -2 | 0.7

High-throughput results (PubChem)
